Source: PubChem
RanGTP-Imp inh – disruptors of Ran-importin-beta complex formation – biochemical, FRET, CFP-Ran, YFP-importin-beta, homogeneous, primary screen; cell-free CFP-Ran/YFP-importin-beta FRET ratio; inhibition, % (test concentration not listed); hit rate 1.1% among 300,000; AID 2216;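 active = most replicates above 15%; inconclusive = exactly half above 15%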;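 also: 0% = DMSO wells and 100% = Ran loaded with GDP instead of GTP; wells of about 40 µL received 100 nL stock; the first replicate is given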
Beta apoptosis – beta cell apoptosis inhibition. INS-1E cytokine-induced death, ATP luminescence, 48 h; percent of positive-control rescue, neutral wells zero. protection from apoptosis, % (no concentration beside the values). hit rate 0.8% among 300,000;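 active = all replicates at 75% or more, or half of them and the mean; inconclusive = half reach 75% but not the mean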;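 also: 0% = cytokine-treated negative control wells and 100% = positive control rescue; higher means more ATP so stronger rescue from cytokine killing; wells of about 40 µL received 100 nL stock; the first replicate is given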
A1 inh – inhibitors of the anti-apoptotic protein A1, read as caspase activation. caspase activation, % (concentration not given with the values). hit rate 0.066% among 330,000. MEF A1-2A-BIM cells, Caspase-Glo 3/7 luminescence, 3 h; percent of clofoctol response, vehicle zero;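 active = over half of replicate activation scores above 10%, or exactly half above 10 with the replicate mean above 10; inconclusive = replicate mean below 10 yet half the replicates above 10; inactive = over half of replicates below 10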;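 also: wells of about 30 µL received 50 nL stock; many hits fall short of the cut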
rRNA inh HTS – inhibits bacterial ribosomal RNA function over humanized ribosomes. GFP signal change (wild-type ribosome), % (test concentration not listed). E. coli WT GFP vs humanized-ribosome RFP mutants, fluorescence, 24 h; hits give low values; DMSO median 0, no signal -100. hit rate 1.6% among 350,000. AID 720706;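 active = significant combined selectivity score with lowered wild-type GFP, culture density cut under 30%, mutant RFP and density less affected; inactive = any of these conditions unmet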; also: one replicate is shown; some compounds called inactive have numbers as strong as hits
Calb FLC – affects C. albicans growth with fluconazole; C. albicans CaCi-2 (fluconazole-resistant clinical isolate) + fluconazole, Alamar Blue growth, 48 h; growth inhibition, % (no concentration beside the values); hit rate 0.57% among 300,000; AID 1979;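 active = most replicates above 75%; inconclusive = exactly half above 75%; inactive = most below 75%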;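 also: all wells also contain fluconazole at 8 µg/ml as a sub-toxic cotreatment; 0% = median of DMSO wells and 100% = median of geldanamycin control wells; wells of about 8 µL received 7.5 nL stock; the first replicate is given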
MLL AF4-AF9 inh – blocks AF4 peptide binding to human AF9; AID 651704; inhibition, % at 10 µM; P42568; hit rate 0.47% among 350,000; AlphaScreen, biotin-AF4 peptide binding to FLAG-AF9;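 active = every replicate reaching a set inhibition limit, whatever the replicate mean, cut at about 25% in these data; inconclusive = mean inhibition reaches that limit but some replicates miss it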;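 also: 0% = plate neutral control median and 100% = total signal loss; the record names both 10 and 1 µM as test concentration; the first replicate is given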
Target sequence (P42568 whole entry, looked up): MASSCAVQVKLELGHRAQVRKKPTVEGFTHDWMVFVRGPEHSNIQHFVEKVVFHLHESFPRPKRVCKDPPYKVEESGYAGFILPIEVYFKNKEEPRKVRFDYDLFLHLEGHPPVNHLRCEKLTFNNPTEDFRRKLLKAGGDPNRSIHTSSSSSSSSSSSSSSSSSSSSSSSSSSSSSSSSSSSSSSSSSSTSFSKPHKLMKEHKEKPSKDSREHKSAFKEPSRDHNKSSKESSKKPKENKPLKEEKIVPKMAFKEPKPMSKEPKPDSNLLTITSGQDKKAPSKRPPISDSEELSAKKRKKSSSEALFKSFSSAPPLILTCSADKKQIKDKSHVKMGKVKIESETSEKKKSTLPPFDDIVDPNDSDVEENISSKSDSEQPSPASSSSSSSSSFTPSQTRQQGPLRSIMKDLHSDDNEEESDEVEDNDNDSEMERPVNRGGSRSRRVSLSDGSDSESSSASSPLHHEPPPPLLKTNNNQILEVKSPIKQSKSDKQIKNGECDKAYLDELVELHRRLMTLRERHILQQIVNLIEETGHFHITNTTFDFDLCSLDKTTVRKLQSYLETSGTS
T cruzi inh – blocks replication of Trypanosoma cruzi; T. cruzi beta-gal in NIH3T3, luminescence, 90 h; inhibition, % (test concentration not listed); hit rate 1.4% among 300,000;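 active = mean inhibition across valid replicates above about 55%, limit read from the data; inconclusive = mean below that limit but half or more replicates reach it; inactive = mean below it, under half of replicates reach it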;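 also: signal also drops with host cell toxicity which is not excluded here; 0% = plate median of DMSO wells and 100% = zero luminescence signal; higher percent means less beta-gal luminescence so fewer parasites; stock transfer was 50 nL into about 50 µL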
Vif TR-FRET – HIV-1 Vif–A3G interaction blockers – biochemical, TR-FRET, GST-Vif 1-94, biotin-A3G peptide, dose response retest, primary screen (AID 1117319); TR-FRET GST-Vif / biotin-A3G peptide binding; higher % means a stronger effect; test concentration not given here; strong numbers were not always called active; inhibition, %; hits with a dose series show IC50 in µM; hit rate 0.57% among 260,000;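 active = above the screen mean plus three standard deviations and confirmed in dose response; inconclusive = results disagree or hit not tested in dose response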;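 also: Vif residues 1-94 fused to GST binding biotinylated APOBEC3G peptide 110-148; 0% = full assay without inhibitor and 100% = GST in place of GST-Vif; retest series ran down from 100 µM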
rRNA inh HTS OD600 – recorded beside rRNA inh HTS, whose call it bears; OD600 change, %; measured here: OD600 growth;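 optical density of the mix in the first replicate; 0 = DMSO median and -100 = no signal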
rRNA inh HTS RFP – further read-out of rRNA inh HTS, marked with its call; RFP signal change, %; measured here: RFP humanized mutant strains;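 first replicate; 0 = DMSO median and -100 = no signal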
Starred values were filed as active, the others as inactive. Only part of the results is shown; count on the stated rates, not on these rows.

How did COc1ccc(-c2[nH]c(-c3ccccc3)nc2SCC(=O)Nc2nccs2)cc1 do in these assays?
Beta apoptosis: 0; A1 inh: 0.1; rRNA inh HTS: 3; MLL AF4-AF9 inh: 11; Vif TR-FRET: 0%; rRNA inh HTS OD600: -27; rRNA inh HTS RFP: 15

Results for COc1cc2c(cc1OC)CN(C(=O)COc1ccc(C#N)cc1)CC2 ?
RanGTP-Imp inh: -3.3; Beta apoptosis: -14; A1 inh: -0.8; Calb FLC: -1; T cruzi inh: 4; Vif TR-FRET: 1%

What do the screens show for `CC(C)c1ccc(NS(=O)(=O)c2ccc(Cl)nc2)cc1`?
RanGTP-Imp inh: 4.9; Beta apoptosis: 4; A1 inh: 0.5; Calb FLC: 2; T cruzi inh: 13; Vif TR-FRET: 9%

Results for Clc1ccc(-n2nnnc2SCc2c(-c3ccccc3)nc3sccn23)cc1 ?
RanGTP-Imp inh: 1.1; Beta apoptosis: 2; A1 inh: -0.6; Calb FLC: 8; T cruzi inh: 34; Vif TR-FRET: -1%

How did N=C1/C(=C\c2coc3ccccc3c2=O)C(=O)N=C2SC=CN12 do in these assays?
RanGTP-Imp inh: -96; Beta apoptosis: -6; A1 inh: 0.1; rRNA inh HTS: -8; Calb FLC: -1; MLL AF4-AF9 inh: -9.9; T cruzi inh: -2; Vif TR-FRET: 21%; rRNA inh HTS OD600: 0; rRNA inh HTS RFP: -2.2

How did COC(=O)c1c(NC(=O)CN2C(=O)NC3(CCc4ccccc4C3)C2=O)sc2c1CCCCC2 (centres undefined) do in these assays?
RanGTP-Imp inh: -2.1; Beta apoptosis: 0; A1 inh: 0.5; rRNA inh HTS: 5; Calb FLC: 17; MLL AF4-AF9 inh: -2.3; T cruzi inh: 0; Vif TR-FRET: 1%; rRNA inh HTS OD600: 5; rRNA inh HTS RFP: 1.5

How did C/C=C(\C)C(=O)O[C@H](c1cc2ccc(=O)oc2cc1OC)[C@@H](O)C(C)(C)O do in these assays?
Beta apoptosis: 3; A1 inh: 0.6; rRNA inh HTS: 9; MLL AF4-AF9 inh: 2.3; rRNA inh HTS OD600: 3; rRNA inh HTS RFP: 5.5

What do the screens show for `CCOC(=O)CSc1nc(C)cc(C)n1`?
RanGTP-Imp inh: inconclusive; Beta apoptosis: -2; A1 inh: -0.7; Calb FLC: -1; T cruzi inh: -8; Vif TR-FRET: -1%

What do the screens show for `COc1ccc(S(=O)(=O)N2CCOCC2)cc1NC(=O)CCc1cc(OC)c(OC)c(OC)c1`?
Beta apoptosis: -14; A1 inh: -0.1; rRNA inh HTS: 3; MLL AF4-AF9 inh: -3.8; Vif TR-FRET: 14%; rRNA inh HTS OD600: 1; rRNA inh HTS RFP: 0.3

What do the screens show for `CCOC(=O)c1ccc(NC(=O)c2nc[nH]c2C(=O)NCCCNC(=O)c2[nH]cnc2C(=O)Nc2ccc(C(=O)OCC)cc2)cc1`?
Beta apoptosis: -6; A1 inh: -0.2; rRNA inh HTS: 14; MLL AF4-AF9 inh: 3.0; rRNA inh HTS OD600: 15; rRNA inh HTS RFP: 6.1

Results for Cn1c(CC2C(=O)Nc3ccc(Br)cc32)nc2ccccc2c1=O (centres undefined) ?
RanGTP-Imp inh: -2.5; Beta apoptosis: -6; A1 inh: 0.5; rRNA inh HTS: -29*; Calb FLC: -17; MLL AF4-AF9 inh: 6.6; T cruzi inh: -8; Vif TR-FRET: 9%; rRNA inh HTS OD600: 0.8*; rRNA inh HTS RFP: -7.2*

How did O=C1COc2ccc(NC(=O)c3ccccc3C(=O)O)cc2N1 do in these assays?
RanGTP-Imp inh: 1.7; Beta apoptosis: -3; A1 inh: -0.6; rRNA inh HTS: -1; Calb FLC: 11; MLL AF4-AF9 inh: 1.0; T cruzi inh: -1; Vif TR-FRET: 5%; rRNA inh HTS OD600: -4; rRNA inh HTS RFP: -0.5

What do the screens show for `COc1ccc(C(C(=O)Nc2ccc(C(C)C)cc2)N(C)C(=O)CNC(C)=O)cc1` (centres undefined)?
RanGTP-Imp inh: -0.5; Beta apoptosis: -8; A1 inh: 1.1; Calb FLC: 1; T cruzi inh: -1; Vif TR-FRET: 0%

How did COc1ccc(-c2cn(Cc3ccc4c(c3)C(=O)c3ccccc3C4=O)nn2)cc1 do in these assays?
RanGTP-Imp inh: -3.7; Beta apoptosis: 5; A1 inh: -0.8; rRNA inh HTS: 16; Calb FLC: -5; MLL AF4-AF9 inh: -1.1; T cruzi inh: -19; rRNA inh HTS OD600: 4; rRNA inh HTS RFP: 13

Results for CC(C)NC(=O)CC(=O)N/N=C/c1ccc(F)cc1 ?
RanGTP-Imp inh: 0.8; Beta apoptosis: -9; A1 inh: 0.1; Calb FLC: -4; T cruzi inh: -6; Vif TR-FRET: 1%

How did C/C(N)=N\S(=O)(=O)c1ccc(Cl)cc1 do in these assays?
RanGTP-Imp inh: 4.3; Beta apoptosis: 4; A1 inh: 0.8; rRNA inh HTS: 5; Calb FLC: -15; MLL AF4-AF9 inh: -6.2; T cruzi inh: 0; Vif TR-FRET: 0%; rRNA inh HTS OD600: -3; rRNA inh HTS RFP: -3.7

Results for CC(CCc1ccco1)NC(=O)Cn1ncc2c1-c1ccccc1OC2 (centres undefined) ?
RanGTP-Imp inh: 3.6; Beta apoptosis: -8; A1 inh: 0.9; rRNA inh HTS: 1; Calb FLC: 4; MLL AF4-AF9 inh: 1.6; T cruzi inh: 0; Vif TR-FRET: 28%; rRNA inh HTS OD600: 0; rRNA inh HTS RFP: -1.3

Results for C#CCOCCOCCOCCNc1nc(N2CCN(C(=O)[C@H](CCCN=C(N)N)n3cc(C(N)[C@@H](C)CC)nn3)CC2)nc(N2CCN(C(=O)[C@H](CCC(=O)O)n3cc([C@@H](N)CO)nn3)CC2)n1 (some centres undefined) ?
Beta apoptosis: 0; A1 inh: -0.9; rRNA inh HTS: 18; MLL AF4-AF9 inh: 9.7; Vif TR-FRET: 2%; rRNA inh HTS OD600: 15; rRNA inh HTS RFP: 2.0

Results for CCOc1ccc(CCNC(=O)c2ccc(CNS(=O)(=O)c3ccccc3)cc2)cc1OCC ?
RanGTP-Imp inh: 4.7; A1 inh: -0.3; Calb FLC: -9; T cruzi inh: 7

How did O=C(N/N=C/c1ccncc1)c1cc(C2CC2)nc2ccccc12 do in these assays?
RanGTP-Imp inh: -3.0; Beta apoptosis: 0; A1 inh: 1.3; Calb FLC: -2; T cruzi inh: -9

How did O=C1CSC(c2ccc(Cl)cc2)N1Nc1nc(N2CCOCC2)nc(N2CCOCC2)n1 (centres undefined) do in these assays?
RanGTP-Imp inh: 6.9; Beta apoptosis: -7; A1 inh: 0.5; rRNA inh HTS: -2; Calb FLC: 3; MLL AF4-AF9 inh: 1.4; T cruzi inh: 14; Vif TR-FRET: -2%; rRNA inh HTS OD600: -16; rRNA inh HTS RFP: 4.2

How did C=C(C)COc1ccc2c(C)c(CCC(=O)N3C[C@H]4C[C@@H](C3)c3cccc(=O)n3C4)c(=O)oc2c1 do in these assays?
RanGTP-Imp inh: 1.2; Beta apoptosis: 0; A1 inh: 0.1; rRNA inh HTS: -4; Calb FLC: 0; MLL AF4-AF9 inh: 4.6; T cruzi inh: -3; rRNA inh HTS OD600: -6; rRNA inh HTS RFP: -5.9

Results for C[C@@]12CCC=C[C@H]1[C@H](c1ccc(/C=C/c3ccccc3)cc1F)N(Cc1ccccc1)C2=O ?
RanGTP-Imp inh: -1.3; Beta apoptosis: 36; A1 inh: -0.9; rRNA inh HTS: 23; Calb FLC: -9; MLL AF4-AF9 inh: 2.6; T cruzi inh: 48; rRNA inh HTS OD600: 16; rRNA inh HTS RFP: 1.5

What do the screens show for `COc1ccccc1OCc1ccc(C(=O)NCc2ccco2)o1`?
RanGTP-Imp inh: -0.2; Beta apoptosis: 11; A1 inh: 0.2; Calb FLC: -4; T cruzi inh: 11; Vif TR-FRET: 6%

The closing 2 records of the part above open the next one:
Results for C[C@@]12CCC=C[C@H]1[C@H](c1ccc(/C=C/c3ccccc3)cc1F)N(Cc1ccccc1)C2=O ?
RanGTP-Imp inh: -1.3; Beta apoptosis: 36; A1 inh: -0.9; rRNA inh HTS: 23; Calb FLC: -9; MLL AF4-AF9 inh: 2.6; T cruzi inh: 48; rRNA inh HTS OD600: 16; rRNA inh HTS RFP: 1.5

What do the screens show for `COc1ccccc1OCc1ccc(C(=O)NCc2ccco2)o1`?
RanGTP-Imp inh: -0.2; Beta apoptosis: 11; A1 inh: 0.2; Calb FLC: -4; T cruzi inh: 11; Vif TR-FRET: 6%

What do the screens show for `CN(C)S(=O)(=O)c1ccc(C(=O)NCC(=O)N/N=C/c2cccs2)cc1`?
RanGTP-Imp inh: -3.9; Beta apoptosis: -8; A1 inh: -0.7; rRNA inh HTS: 6; Calb FLC: -9; MLL AF4-AF9 inh: -0.8; T cruzi inh: -10; Vif TR-FRET: 8%; rRNA inh HTS OD600: 10; rRNA inh HTS RFP: 2.5

What do the screens show for `CN(C)C(=O)CSc1nc2ccc(N3C(=O)c4ccccc4C3=O)cc2s1`?
RanGTP-Imp inh: -0.4; Beta apoptosis: 1; A1 inh: -0.4; rRNA inh HTS: 14; Calb FLC: -4; MLL AF4-AF9 inh: -5.2; T cruzi inh: -11; Vif TR-FRET: 3%; rRNA inh HTS OD600: 6; rRNA inh HTS RFP: 0.4

What do the screens show for `Cc1ccccc1NC(=O)c1ccccc1NC(=O)c1ccco1`?
RanGTP-Imp inh: -1.5; Beta apoptosis: 4; A1 inh: -0.6; Calb FLC: -1; T cruzi inh: -5; Vif TR-FRET: 24%

Results for COc1ccc(N2CCN(C(CNC(=O)C(=O)NC3CC3)c3ccco3)CC2)cc1 (centres undefined) ?
RanGTP-Imp inh: -1.1; A1 inh: -0.1; rRNA inh HTS: 5; Calb FLC: 7; MLL AF4-AF9 inh: -38; T cruzi inh: -1; Vif TR-FRET: 4%; rRNA inh HTS OD600: 9; rRNA inh HTS RFP: -1.0

What do the screens show for `CCN1CCN(CCCNC(=O)c2ccc3c(c2)N(Cc2ccc(C)cc2)CCS3)CC1`?
RanGTP-Imp inh: 3.8; Beta apoptosis: 5; A1 inh: 1.2; Calb FLC: 8; T cruzi inh: 25

Results for CC(SCc1ccccc1)C(=O)N/N=C/c1ccc2c(c1)OCO2 (centres undefined) ?
RanGTP-Imp inh: 0.3; Beta apoptosis: 3; A1 inh: 0.5; Calb FLC: 5; T cruzi inh: 3; Vif TR-FRET: inconclusive

What do the screens show for `CCOC(=O)[C@@H]1[C@H]2COc3ccc(Br)cc3[C@@H]2N2C(=O)N(c3ccc(F)cc3)C(=O)[C@]12C`?
RanGTP-Imp inh: -2.4; Beta apoptosis: -1; A1 inh: -0.8; rRNA inh HTS: 11; Calb FLC: 1; MLL AF4-AF9 inh: 0.8; T cruzi inh: -33; rRNA inh HTS OD600: 3; rRNA inh HTS RFP: -3.9
